Source: PubChem BioAssay (Broad Institute)
UUG fidelity = alters start codon recognition fidelity in yeast; AID 602363; hit rate 0.13% among 350,000; activity score, % at 18.7 µM; S. cerevisiae UUG-firefly luciferase reporter, luminescence/redox ratio;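 active = replicate mean at a twofold rise or more, about +100% in these data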;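 note: firefly luciferase made from a UUG start codon reports start codon fidelity; reporter light over untreated wells divided by growth signal over untreated wells; some hits fall short of that in this replicate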
Active calls of the source: *. An excerpt. The share of hits here may be higher or lower than overall.

SMILES | UUG fidelity
CCC(=O)N1[C@H](C(=O)NC2CCC2)[C@@H](CO)[C@@H]2Cn3c(ccc(C4=CCCC4)c3=O)[C@@H]21 | 9
C[C@@H]1CN([C@@H](C)CO)C(=O)c2cccc(NS(=O)(=O)c3ccccc3)c2O[C@@H]1CN(C)C | 24
COc1ccc(S(=O)(=O)N(C)C[C@@H]2Oc3c(NC(=O)c4cc(C)nn4C)cccc3C(=O)N([C@@H](C)CO)C[C@@H]2C)cc1 | -3
Cc1noc(C)c1S(=O)(=O)Nc1ccc2c(c1)C(=O)N([C@H](C)CO)C[C@@H](C)[C@H](CN(C)C)O2 | -9
C[C@@H]1CN([C@@H](C)CO)C(=O)c2cc(NC(=O)Cn3cnnn3)ccc2O[C@@H]1CN(C)C(=O)Nc1ccc2c(c1)OCO2 | 6
CCC(=O)N1CCCCN2[C@H](C1)[C@H](c1ccc(-c3cccc(C#N)c3)cc1)[C@@H]2CO | 6
COCC(=O)N1CC[C@@H]2[C@H](CO)Nc3ccc(C#Cc4ccc(F)cc4)cc3[C@@H]21 | -3
CCCN1C[C@H](C)[C@@H](OC)CN(C)C(=O)c2cc(NC(=O)Nc3c(C)noc3C)ccc2OC[C@H]1C | -10
C[C@H]1CN([C@@H](C)CO)C(=O)c2cc(NC(=O)Nc3ccc(C(F)(F)F)cc3)ccc2O[C@@H]1CN(C)Cc1ccncc1 | -5
CC(C)C#Cc1ccc([C@@H]2[C@@H](CO)N3CCCCN(C(=O)c4ccc(F)cc4)C[C@@H]23)cc1 | 5
O=C(C[C@H]1CC[C@H]2[C@@H](COC[C@@H](O)CN2S(=O)(=O)c2ccc(F)cc2)O1)NCc1ccncn1 | 1
C[C@H]1CN([C@@H](C)CO)C(=O)c2c(c3ccccc3n2C)-c2ccccc2CO[C@@H]1CN(C)C(=O)c1ccc(F)cc1 | 8
O=C(C1CC1)N1C[C@@H]2[C@H](c3ccccc31)[C@H](CO)N2C(=O)c1cccc(F)c1 | 15
O=C(C[C@@H]1CC[C@@H]2[C@H](COC[C@H](O)CN2Cc2ccc3c(c2)OCO3)O1)N1CCOCC1 | -6
CC(C)NC(=O)Nc1cccc2c1O[C@@H](CN(C)C(=O)NC(C)C)[C@@H](C)CN([C@H](C)CO)C2=O | -15
CC(C)NC(=O)N(C)C[C@H]1Oc2ccc(NS(=O)(=O)c3ccc(Cl)cc3)cc2C(=O)N([C@@H](C)CO)C[C@H]1C | 1
CO[C@H]1CN(C)C(=O)c2cc(NC(=O)Nc3cccc(F)c3)ccc2OC[C@@H](C)NC[C@H]1C | -9
C[C@@H]1CN([C@H](C)CO)C(=O)c2cc(NC(=O)c3ccncc3)ccc2O[C@@H]1CN(C)C | -4
CC(C)(O)C#Cc1ccc([C@@H]2[C@@H](CO)N3CCCCN(S(C)(=O)=O)C[C@@H]23)cc1 | 4
CO[C@@H]1CN(C)C(=O)c2ccc(NS(=O)(=O)c3ccc(C)cc3)cc2OC[C@H](C)NC[C@@H]1C | 1
COCC(=O)N(C)C[C@H]1[C@H](c2ccccc2)[C@@H](CO)N1C(=O)NC(C)C | -11
CO[C@H]1CN(C)C(=O)c2ccc(NC(=O)C3CC3)cc2OC[C@H](C)N(Cc2cccnc2)C[C@H]1C | 12
C[C@@H]1CN([C@@H](C)CO)C(=O)Cc2cc(NC(=O)C3CCCCC3)ccc2O[C@H]1CN(C)C(=O)Nc1ccc2c(c1)OCO2 | 10
O=C(CN1CCOCC1)N1CCCCN2[C@H](CO)[C@H](c3ccc(C#Cc4ccccc4)cc3)[C@@H]2C1 | 15
CCCNC(=O)C[C@H]1C[C@H]2c3cc(NS(=O)(=O)c4cccc(OC)c4)ccc3O[C@H]2[C@H](CO)O1 | -1

(more compounds)
SMILES | UUG fidelity
COc1ccc(C#Cc2ccc([C@H]3[C@H]4CN(C(=O)Nc5ccccc5F)CCCCN4[C@H]3CO)cc2)cc1 | 6
C[C@H](CO)N1C[C@H](C)[C@H](CN(C)C)Oc2ccc(NC(=O)CCN3CCOCC3)cc2C1=O | -15
CCCC(=O)Nc1ccc2c(c1)C(=O)N(C)C[C@H](OC)[C@@H](C)CN(Cc1ccccn1)[C@H](C)CO2 | -20
O=C(Nc1cccc(Cl)c1)N1C[C@@H]2[C@H](c3ccccc31)[C@@H](CO)N2Cc1ccccc1Cl | 12
CN(C)CC#Cc1ccc([C@H]2[C@@H](CO)N3CCCCN(S(=O)(=O)c4ccccc4)C[C@H]23)cc1 | 24
C[C@@H]1CN([C@@H](C)CO)C(=O)Cc2cc(NS(=O)(=O)c3ccc(F)cc3)ccc2O[C@H]1CN(C)CC1CC1 | 1
C[C@@H]1CN([C@H](C)CO)C(=O)c2cc(NC(=O)Nc3ccccc3)ccc2O[C@@H]1CN(C)C(=O)NC1CCCCC1 | 0
CO[C@H]1CN(C)C(=O)c2ccc(NC(=O)C3CC3)cc2OC[C@H](C)NC[C@H]1C | 0
OC[C@H]1[C@@H](c2ccc(Br)cc2)[C@H]2CNCCCCN21 | -7
C[C@H](CO)N1C[C@H](C)[C@@H](CN(C)C(=O)Nc2cccc(C(F)(F)F)c2)OCc2cnnn2CCCC1=O | 19
CCCNC(=O)[C@H]1[C@H](CO)[C@H]2Cn3c(ccc(-c4cccc(OC)c4)c3=O)[C@@H]1N2CCC | 6
CCCC(=O)Nc1ccc2c(c1)C(=O)N(C)C[C@@H](OC)[C@H](C)CN(C(=O)Cc1cccnc1)[C@H](C)CO2 | -4
C[C@H]1CN([C@@H](C)CO)C(=O)c2cc(NC(=O)Cn3cnnn3)ccc2O[C@H]1CN(C)Cc1ccc(C(=O)Nc2ccccc2N)cc1 | -16
CN(C[C@H]1[C@H](c2ccccc2)[C@@H](CO)N1C(=O)C1CCC1)C(=O)c1ccccn1 | -7
OC[C@H]1[C@H](c2ccc(C#Cc3cccnc3)cc2)[C@@H]2CN(Cc3ccccc3F)CCCCN12 | 14
CCC(=O)Nc1ccc2c(c1)C(=O)N(C)C[C@@H](OC)[C@H](C)CN(C(=O)c1cnccn1)[C@@H](C)CO2 | 8
C[C@H](CO)N1C[C@H](C)[C@@H](CN(C)Cc2ccc3c(c2)OCO3)Oc2ccc(NS(=O)(=O)c3cn(C)cn3)cc2C1=O | -18
C[C@@H](NC(=O)[C@@H]1[C@@H](CO)[C@@H]2Cn3c(ccc(-c4ccccc4)c3=O)[C@H]1N2C)c1ccccc1 | 6
CC(C)COC(=O)N(C)C[C@H]1OCc2cn(nn2)CCCC(=O)N([C@H](C)CO)C[C@H]1C | 5
C[C@H]1CN([C@@H](C)CO)C(=O)c2cc(NC(=O)Nc3ccc4c(c3)OCO4)ccc2O[C@@H]1CN(C)C(=O)Nc1cccc2ccccc12 | -4
CCCNC(=O)N1C[C@@H](C)[C@@H](OC)CN(C)C(=O)c2ccc(NC(=O)CCC)cc2OC[C@@H]1C | 7
C[C@@H](O)C#Cc1ccc([C@@H]2[C@H]3CN(C(=O)c4ccc(F)cc4)CCCCN3[C@H]2CO)cc1 | 20
CCCNC(=O)N1[C@H](CO)[C@H](c2ccccc2)[C@@H]1CNC(=O)c1cccc(F)c1 | 1
C[C@H](CO)N1C[C@H](C)[C@@H](CN(C)C(=O)NC2CCCCC2)Oc2c(NC(=O)c3ccc(-c4nccs4)cc3)cccc2C1=O | 10
CO[C@H]1CN(C)C(=O)c2cc(NC(C)=O)ccc2OC[C@H](C)N(CC2CC2)C[C@@H]1C | -5

Five compounds drawn at random from those above:
SMILES | UUG fidelity
C[C@H](CO)N1C[C@H](C)[C@@H](CN(C)Cc2ccc3c(c2)OCO3)Oc2ccc(NS(=O)(=O)c3cn(C)cn3)cc2C1=O | -18
C[C@H]1CN([C@@H](C)CO)C(=O)c2cc(NC(=O)Cn3cnnn3)ccc2O[C@H]1CN(C)Cc1ccc(C(=O)Nc2ccccc2N)cc1 | -16
C[C@@H](O)C#Cc1ccc([C@@H]2[C@H]3CN(C(=O)c4ccc(F)cc4)CCCCN3[C@H]2CO)cc1 | 20
CCCNC(=O)[C@H]1[C@H](CO)[C@H]2Cn3c(ccc(-c4cccc(OC)c4)c3=O)[C@@H]1N2CCC | 6
CO[C@H]1CN(C)C(=O)c2cc(NC(C)=O)ccc2OC[C@H](C)N(CC2CC2)C[C@@H]1C | -5

(more compounds)
SMILES | UUG fidelity
C[C@H]1CN([C@@H](C)CO)C(=O)c2cc(NC(=O)CCC(F)(F)F)ccc2O[C@@H]1CN(C)C(=O)Nc1ccc(C(F)(F)F)cc1 | 19
CO[C@H]1CN(C)C(=O)c2cc(NS(C)(=O)=O)ccc2OC[C@H](C)N(C(=O)C2CC2)C[C@@H]1C | 6
O=C(c1ccncc1)N1CC[C@@H]2[C@@H](CO)Nc3ccc(-c4ccccc4)cc3[C@@H]21 | -10
O=C(C[C@H]1CC[C@@H]2[C@H](COC[C@@H](O)CN2Cc2ccncc2)O1)NCc1ccncc1 | -6
Cc1ccccc1S(=O)(=O)N1CCCCN2[C@H](CO)[C@@H](c3ccc(C#CCN(C)C)cc3)[C@H]2C1 | 11
CO[C@H]1CN(C)C(=O)c2cc(NC(=O)Nc3ccccc3F)ccc2OC[C@@H](C)N(C)C[C@H]1C | -10
O=C(c1ccccn1)N1CC[C@@H]2[C@@H](CO)Nc3ccc(Br)cc3[C@@H]21 | 1
CC(=O)N1[C@@H]2CN(S(=O)(=O)c3ccccc3F)c3ccccc3[C@@H]2[C@@H]1CO | 26
Cc1ccc(S(=O)(=O)N(C)C[C@H]2Oc3c(NC(=O)NC(C)C)cccc3C(=O)N([C@@H](C)CO)C[C@@H]2C)cc1 | 21
C[C@@H]1CN([C@H](C)CO)C(=O)c2ccccc2-c2ccccc2CO[C@H]1CN(C)S(=O)(=O)c1ccccc1 | 12
O=C(CC(F)(F)F)N1C[C@@H]2[C@H](c3ccccc31)[C@@H](CO)N2C(=O)Cc1ccccc1 | 13
Cc1nn(C)cc1NC(=O)C[C@@H]1CC[C@H]2[C@@H](COc3ccc(NC(=O)Nc4cccc(Cl)c4)cc3C(=O)N2C)O1 | -15
CO[C@@H]1CN(C)C(=O)c2ccc(NC(=O)c3cc(C)on3)cc2OC[C@@H](C)N(CC2CC2)C[C@@H]1C | -16
CC=Cc1ccc2n(c1=O)C[C@@H]1[C@@H](CO)[C@H](C(=O)N3CCOCC3)N(Cc3ccccc3)[C@H]21 (mixture of isomers) | 16
COc1ccccc1-c1ccc([C@@H]2[C@@H](CO)N3CCCCN(C(=O)CN4CCOCC4)C[C@H]23)cc1 | 15
C[C@@H]1CN([C@H](C)CO)C(=O)c2cccc(NC(=O)Nc3ccc(C(F)(F)F)cc3)c2O[C@H]1CN(C)C(=O)Nc1ccc(F)cc1 | 4
CCC(=O)Nc1ccc2c(c1)OC[C@@H](C)N(CC1CC1)C[C@H](C)[C@H](OC)CN(C)C2=O | 3
O=S(=O)(c1ccccc1)N1[C@H](CO)[C@H]2c3ccccc3NC[C@H]21 | -7
O=C(Nc1cccc(Cl)c1)N1C[C@H]2[C@@H](c3ccccc31)[C@H](CO)N2C(=O)c1cccnc1 | -9
CO[C@@H]1CN(C)C(=O)c2ccc(NC(=O)Nc3ccc(F)cc3)cc2OC[C@@H](C)N(C(=O)c2ccc(F)cc2)C[C@H]1C | 8
CCCNC(=O)Nc1ccc2c(c1)C(=O)N(C)C[C@@H](OC)[C@@H](C)CN(Cc1cncnc1)[C@@H](C)CO2 | -6
Cc1cccc(S(=O)(=O)N2CC[C@@H]3[C@H](CO)Nc4ccc(C5=CCCCC5)cc4[C@@H]32)c1 | -16
COc1cccc(NC(=O)N2[C@H](CO)[C@@H](c3ccccc3)[C@H]2CNC(C)C)c1 | -6
CCC(=O)N1C[C@H]2[C@@H](c3ccccc31)[C@@H](CO)N2C(=O)CC | -5
CO[C@H]1CN(C)C(=O)c2cc(NC(=O)C3CCC3)ccc2OC[C@H](C)N(CC2CCCCC2)C[C@@H]1C | -16
COc1ccc(NC(=O)Nc2ccc3c(c2)C(=O)N([C@@H](C)CO)C[C@@H](C)[C@@H](CN(C)S(C)(=O)=O)O3)cc1 | 6
C[C@@H]1CN([C@@H](C)CO)C(=O)c2cc(NS(=O)(=O)c3cn(C)cn3)ccc2O[C@@H]1CN(C)Cc1ccc(Oc2ccccc2)cc1 | -3
CO[C@H]1CN(C)C(=O)c2ccc(NC(=O)c3cc(C)on3)cc2OC[C@@H](C)NC[C@H]1C | 18
CO[C@@H]1CN(C)C(=O)c2ccc(NC(=O)C3CC3)cc2OC[C@H](C)N(Cc2ccccc2)C[C@H]1C | -2
Cc1noc(C)c1S(=O)(=O)Nc1ccc2c(c1)C(=O)N([C@@H](C)CO)C[C@H](C)[C@@H](CN(C)C(=O)NC1CCCCC1)O2 | -9

Arranged by count of non-hydrogen atoms (lowest first): three of the compounds above.
SMILES | UUG fidelity
O=C(CC(F)(F)F)N1C[C@@H]2[C@H](c3ccccc31)[C@@H](CO)N2C(=O)Cc1ccccc1 | 13
O=C(Nc1cccc(Cl)c1)N1C[C@H]2[C@@H](c3ccccc31)[C@H](CO)N2C(=O)c1cccnc1 | -9
COc1ccc(NC(=O)Nc2ccc3c(c2)C(=O)N([C@@H](C)CO)C[C@@H](C)[C@@H](CN(C)S(C)(=O)=O)O3)cc1 | 6

An excerpt of these results, with the structure last.
UUG fidelity | SMILES
-5 | CCC(=O)N1C[C@H]2[C@@H](c3ccccc31)[C@@H](CO)N2C(=O)CC
-16 | CO[C@H]1CN(C)C(=O)c2cc(NC(=O)C3CCC3)ccc2OC[C@H](C)N(CC2CCCCC2)C[C@@H]1C
6 | COc1ccc(NC(=O)Nc2ccc3c(c2)C(=O)N([C@@H](C)CO)C[C@@H](C)[C@@H](CN(C)S(C)(=O)=O)O3)cc1
-3 | C[C@@H]1CN([C@@H](C)CO)C(=O)c2cc(NS(=O)(=O)c3cn(C)cn3)ccc2O[C@@H]1CN(C)Cc1ccc(Oc2ccccc2)cc1
18 | CO[C@H]1CN(C)C(=O)c2ccc(NC(=O)c3cc(C)on3)cc2OC[C@@H](C)NC[C@H]1C
